Screens: PubChem BioAssay, National Center for Advancing Translational Sciences (NCATS)
GLP1R inv ag = GLP-1 receptor (human) inverse agonism; Potency, µM (titrated, usually from 38.3 µM), inactives show at the highest dose activity change, negative = inhibition, actives largely listed as inhibitors; HEK293 GLP-1R CRE-luciferase, luminescence, 24 h; GLP-1R form is constitutively active; actives 1.6% (n = 410,000); P43220; further: on the % scale 0 is the no-effect control and ±100 the full control effect; nearly all actives have a fitted effect of over 55% in size
Target sequence (P43220 whole entry, looked up): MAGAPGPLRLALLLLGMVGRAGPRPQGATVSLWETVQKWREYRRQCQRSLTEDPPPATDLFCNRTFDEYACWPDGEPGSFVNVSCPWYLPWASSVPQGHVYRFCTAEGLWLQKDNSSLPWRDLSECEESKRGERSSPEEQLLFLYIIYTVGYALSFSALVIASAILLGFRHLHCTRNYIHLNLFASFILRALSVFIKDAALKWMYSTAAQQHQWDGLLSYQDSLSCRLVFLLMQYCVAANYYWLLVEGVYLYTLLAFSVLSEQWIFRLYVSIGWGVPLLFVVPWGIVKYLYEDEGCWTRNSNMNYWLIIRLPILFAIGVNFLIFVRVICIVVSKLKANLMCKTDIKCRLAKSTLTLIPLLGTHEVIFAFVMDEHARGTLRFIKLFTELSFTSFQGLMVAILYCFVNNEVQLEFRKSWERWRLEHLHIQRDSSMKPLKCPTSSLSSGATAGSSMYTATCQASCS
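Assay principle: reduced luminescence from a cAMP-responsive reporter in HEK293 cells co-expressing a constitutively active GLP-1R. Conditions: 24 hr compound incubation, 37 deg C, 5% CO2.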
SW480 rerep = inducers of DNA re-replication in SW480 colon cancer cells; AID 624297; actives 1.8% (n = 340,000); SW480 DNA re-replication, Hoechst DNA content imaging, 48 h; Potency, µM (titrated, usually from 46.1 µM), for the others: at the highest dose re-replication activation, most hits filed as activators; further: % of control where 0% means no effect; nearly all actives have a fitted effect of over 55% in size
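Compounds, transferred as 23 nL by pin tool, were incubated with cells for 48 hr; DNA content per nucleus was then quantified by Hoechst staining and fluorescence plate imaging.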
GLP-1R agonist = GLP-1 receptor (human) agonism | HEK293 GLP-1R CRE-luciferase, luminescence, 4-6 h; cells express a hypersensitive GLP-1R form | Potency, µM (top dose mostly 45.6 µM), for inactives: at the top dose activation, most hits filed as activators | actives 0.007% (n = 380,000) | P43220; further: % of control where 0% means no effect
* = called active by the depositor; u = inconclusive; x = not tested or not shown; & = joins results of further samples; [ ] = dose if it differs, or a comment. The call rests on the fitted dose curve; in most records, active means well fitted curve in the direction sought with a large enough effect; inconclusive means small, poorly fitted or top-dose-only effect, or another doubt; inactive means no such curve, though single readings can be large; an effect the other way counts as inactive or inconclusive. Potency means the concentration at half of the fitted maximal effect.

O=C1NC[C@@H](c2ccccc2)OC(=O)[C@H](Cc2ccc(F)cc2)CC/C=C/C[C@H]1CC(=O)N(CCO)Cc1ccccc1
  GLP1R inv ag = u | SW480 rerep = 17.4% | GLP-1R agonist = -4.9%

Cn1ncc(Br)c1C(=O)O
  GLP1R inv ag = 15.7% | SW480 rerep = -11.8% | GLP-1R agonist = 28.4%

O=S(=O)(c1ccc2nc(SCc3cccc(Cl)c3)[nH]c2c1)N1CCOCC1
  GLP1R inv ag = u | SW480 rerep = 3.2% | GLP-1R agonist = 8.8%

C#C[C@]1(O)CCC2C3CCC4=Cc5oncc5CC4(C)C3CCC21C (stereo partly specified)
  GLP1R inv ag = 3.9% | SW480 rerep = 0.1% | GLP-1R agonist = 7.1%

O=C1NC[C@@H](c2ccccc2)OC(=O)[C@@H](Cc2ccc(F)cc2)CC/C=C/C[C@@H]1CC(=O)N(CCO)Cc1ccccc1
  GLP1R inv ag = 0.2% | SW480 rerep = 22.8% | GLP-1R agonist = 7.5%

O=C(O)C1=C[C@@H](O)[C@@H](O)[C@H](O)C1
  GLP1R inv ag = 13.4% | SW480 rerep = -28.2% | GLP-1R agonist = 11.7%

O=C1NC[C@@H](c2ccccc2)OC(=O)[C@@H](Cc2ccc(F)cc2)CC/C=C/C[C@H]1CC(=O)N(CCO)Cc1ccccc1
  GLP1R inv ag = -0.2% | SW480 rerep = 4.61µM* | GLP-1R agonist = -4.6%

COc1cccc2c1C(=O)c1c(O)c3c(c(O)c1C2=O)C[C@@](O)(C(C)=O)C[C@@H]3O[C@H]1C[C@H](N)[C@H](O)[C@H](C)O1
  GLP1R inv ag = u | SW480 rerep = -3.8%&-41.3% | GLP-1R agonist = -10.3%&-3.2%

COc1cc2c(cc1OC)C1C(=O)c3cc(OS(C)(=O)=O)c(OC)cc3C1N(C)C2=O (stereo unspecified)
  GLP1R inv ag = 5.2% | SW480 rerep = 7.31µM* | GLP-1R agonist = 4.8%

O=c1ccc2cccc([N+](=O)[O-])c2[nH]1
  GLP1R inv ag = 15.9% | SW480 rerep = x | GLP-1R agonist = 3.0%

CCNC(=O)C1CC(=O)N(CC)C(=Nc2cc(Cl)c(O)c(Cl)c2)S1 (stereo unspecified)
  GLP1R inv ag = 17.9% | SW480 rerep = -2.7% | GLP-1R agonist = 0.6%

O=C1NC[C@H](c2ccccc2)OC(=O)[C@H](Cc2ccc(F)cc2)CC/C=C/C[C@@H]1CC(=O)N(CCO)Cc1ccccc1
  GLP1R inv ag = u | SW480 rerep = 9.5% | GLP-1R agonist = -0.7%

COc1cccc2c1C(=O)c1c(O)c3c(c(O)c1C2=O)C[C@@](O)(C(=O)CO)C[C@@H]3O[C@H]1C[C@H](N)[C@@H](O)[C@H](C)O1
  GLP1R inv ag = u | SW480 rerep = -133.6%[inhibitor] | GLP-1R agonist = -26.8%

CC(=O)Oc1ccc(-c2cc3ccc(OC(C)=O)cc3oc2=O)cc1
  GLP1R inv ag = 12.7% | SW480 rerep = 12.8% | GLP-1R agonist = -0.7%

CC(C)NC[C@@H](O)COc1ccc(CC(N)=O)cc1
  GLP1R inv ag = u | SW480 rerep = -6.8% | GLP-1R agonist = -6.5%

Cc1nc(=O)c(-c2ccccc2)c(C)n1-c1ccc(O)c(C(=O)O)c1
  GLP1R inv ag = 11.9% | SW480 rerep = 13.5% | GLP-1R agonist = 2.6%

CC(C(=O)O)c1cccc(C(=O)c2ccccc2)c1 (stereo unspecified)
  GLP1R inv ag = -8.5% | SW480 rerep = 3.9% | GLP-1R agonist = -1.3%

Sorted by molecular weight (high to low): part of the list above.
O=C1NC[C@@H](c2ccccc2)OC(=O)[C@@H](Cc2ccc(F)cc2)CC/C=C/C[C@H]1CC(=O)N(CCO)Cc1ccccc1
  GLP1R inv ag = -0.2% | SW480 rerep = 4.61µM* | GLP-1R agonist = -4.6%

COc1cccc2c1C(=O)c1c(O)c3c(c(O)c1C2=O)C[C@@](O)(C(=O)CO)C[C@@H]3O[C@H]1C[C@H](N)[C@@H](O)[C@H](C)O1
  GLP1R inv ag = u | SW480 rerep = -133.6%[inhibitor] | GLP-1R agonist = -26.8%

COc1cccc2c1C(=O)c1c(O)c3c(c(O)c1C2=O)C[C@@](O)(C(C)=O)C[C@@H]3O[C@H]1C[C@H](N)[C@H](O)[C@H](C)O1
  GLP1R inv ag = u | SW480 rerep = -3.8%&-41.3% | GLP-1R agonist = -10.3%&-3.2%

CCNC(=O)C1CC(=O)N(CC)C(=Nc2cc(Cl)c(O)c(Cl)c2)S1 (stereo unspecified)
  GLP1R inv ag = 17.9% | SW480 rerep = -2.7% | GLP-1R agonist = 0.6%

Cc1nc(=O)c(-c2ccccc2)c(C)n1-c1ccc(O)c(C(=O)O)c1
  GLP1R inv ag = 11.9% | SW480 rerep = 13.5% | GLP-1R agonist = 2.6%

CC(C)NC[C@@H](O)COc1ccc(CC(N)=O)cc1
  GLP1R inv ag = u | SW480 rerep = -6.8% | GLP-1R agonist = -6.5%

CC(C(=O)O)c1cccc(C(=O)c2ccccc2)c1 (stereo unspecified)
  GLP1R inv ag = -8.5% | SW480 rerep = 3.9% | GLP-1R agonist = -1.3%

O=c1ccc2cccc([N+](=O)[O-])c2[nH]1
  GLP1R inv ag = 15.9% | SW480 rerep = x | GLP-1R agonist = 3.0%

Only part of the results is shown, so the mix of outcomes need not match the whole.
